Screens: PubChem BioAssay, National Center for Advancing Translational Sciences (NCATS)
Methyltransferases: Primary Screen for Target Class Profiling of Small Molecule Inhibitors of Methyltransferases; purified enzyme, MTase-Glo SAH luminescence; hits give low values; calls only at 40 µM; 25,000 tested, 3.9% active; AID 1745853, 2022; active = -50% or lower on at least one of six enzymes; inconclusive = the cases between; inactive = as a rule above -30% on all six;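 further: enzymes were COMT GAMT GNMT HNMT NNMT and PNMT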
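Each enzyme was reacted with SAM and its substrate, with compounds tested once at 40 uM; SAH formed was read by MTase-Glo luminescence.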
Calls only; i = inactive; ? = inconclusive; + = active, no number. On the % scale 0 is the no-effect control and ±100 the full control effect. This is a subset. The share of hits here may be higher or lower than overall.

The first two records, ahead of the listing:
Compound,Methyltransferases
CCC(C)NC(=O)c1ccc2c(=O)n(CCC(C)C)c3nn(CC(=O)c4ccc(C)cc4)c(=O)n3c2c1 (stereo not given),i
CCN1C(=O)c2c(C(=O)NCCc3ccccc3)ncn2CC1(C)C(=O)NC1CCCC1 (stereo not given),i

All compounds of this part, repeating the preview:
Compound,Methyltransferases
CCC(C)NC(=O)c1ccc2c(=O)n(CCC(C)C)c3nn(CC(=O)c4ccc(C)cc4)c(=O)n3c2c1 (stereo not given),i
CCN1C(=O)c2c(C(=O)NCCc3ccccc3)ncn2CC1(C)C(=O)NC1CCCC1 (stereo not given),i
CCOC(=O)c1cc2n(n1)CC(C)(C(=O)NCc1ccccc1)N(Cc1ccccc1Br)C2=O (stereo not given),i
Cc1ccc(CN2C(=O)c3ccc(-c4ccccc4)n3CC2(C)C(=O)NC2CCCCCC2)cc1 (stereo not given),i
CCCN1C(=O)c2c(C(=O)NCCc3cccs3)ncn2CC1(C)C(=O)NC1CCCC1 (stereo not given),i
CN1C(=O)c2cc3ccccc3n2CC1(C)C(=O)NCC(=O)NCc1cccc(Cl)c1 (stereo not given),i
c1cc2c(cc1CN1CCOCC1)CNCCO2,i
COc1ccc2cc1Nc1ccc(cc1)C[C@H](NCc1ccc3c(c1)CCO3)C(=O)N(C)[C@H](C(=O)NCCC(C)C)C2,i
C#Cc1cccc(Nc2ncnc3cc(OC)c(OC)cc23)c1,?
Cc1ccc(CCN2C(=O)c3cc4ccccc4n3CC2(C)C(=O)NCCC(C)C)cc1 (stereo not given),i
Cc1ccc(NC(=O)Cn2nc3n(C(C)C)c(=O)c4ccc(C(=O)NC(C)C)cc4n3c2=O)cc1F,i
O=C(N[C@@H]1CCN(C(=O)c2n[nH]c3ccccc23)C[C@H]1O)c1cccnc1,i
C[C@@H]1O[C@@H](O[C@H]2[C@H](O[C@H]3[C@H](O[C@H]4CC[C@@]5(C)C(CC[C@]6(C)C5CC=C5[C@@H]7CC(C)(C)C[C@@H](O)[C@]7(C)CC[C@]56C)C4(C)C)O[C@H](C(=O)O)[C@@H](O)[C@@H]3O)O[C@H](C(=O)O)[C@H](O)[C@@H]2O)[C@H](O)[C@H](O)[C@H]1O (stereo not given in full),i
CC1CCC23COC(=O)C2=CC(O)CC3C1(C)CCC1=CC(O)OC1=O (stereo not given),i
Cc1ccc(Cl)c(Nc2ccccc2C(=O)O)c1Cl,i
CC1(C(=O)NC2CCCCCCC2)Cn2c(cc3sccc32)C(=O)N1CCc1ccccc1 (stereo not given),i
CC1CCC(NC(=O)CCn2ccc3cc(S(=O)(=O)N4CCC(C)CC4)ccc32)CC1 (stereo not given),i
Cc1ccc(NC(=O)Cn2nc3n(C(C)C)c(=O)c4ccc(C(=O)NCC(C)C)cc4n3c2=O)c(C)c1,i
CC1(C(=O)NC2CCCCC2)Cn2c(cc3occc32)C(=O)N1Cc1cccs1 (stereo not given),i
COc1ccccc1N1CCN(CCN2C(=O)CC3(CCCC3)CC2=O)CC1,i
CC(C)(O)c1ccc2c(c1)C(O)CC1C(C)(C(=O)O)CCCC21C (stereo not given),i
C=C(C(=O)OC)[C@]12O[C@@](C)(CC[C@@]3(O)/C(=C\C)C(=O)O[C@]3(C)C[C@@H]1OC(=O)C(CO)CN1CCCC1C(=O)O)CC2=O (stereo not given in full),i
CCC(C)NC(=O)Cn1c(=O)oc2cc(S(=O)(=O)NC3CCCC3)ccc21 (stereo not given),i
NC(=O)c1nnn([C@H]2CCN3C(=O)[C@@H](Cc4ccccc4)NC(=O)[C@@H]3C2)c1C(N)=O,i
COc1cccc(NC(=O)CCc2nnc3n(Cc4ccccc4Cl)c(=O)c4ccccc4n23)c1,i
Cc1cc(C)cc(N2C(=O)c3cc4occc4n3CC2(C)C(=O)NC2CCC(C)CC2)c1 (stereo not given),i
COCCn1ccc2c(C3=CCOCC3)nc(-c3cccc4[nH]ccc34)cc21,+
O=C(CCc1nnc2n(Cc3ccc(F)cc3)c(=O)c3ccccc3n12)N1CCN(c2ccccc2F)CC1,i
CCOc1ccccc1CN1C(=O)c2ccc(-c3ccccc3)n2CC1(C)C(=O)NC1CCCCC1 (stereo not given),i
COc1cccc(C(=O)N2CC(=O)N(Cc3ccc(Cl)cc3)CC(O)C2)c1 (stereo not given),i

Shown as labelled records: part of the list above.
Compound: CCOC(=O)c1cc2n(n1)CC(C)(C(=O)NCc1ccccc1)N(Cc1ccccc1Br)C2=O (stereo not given)
  Methyltransferases = i
Compound: Cc1ccc(CN2C(=O)c3ccc(-c4ccccc4)n3CC2(C)C(=O)NC2CCCCCC2)cc1 (stereo not given)
  Methyltransferases = i
Compound: CCCN1C(=O)c2c(C(=O)NCCc3cccs3)ncn2CC1(C)C(=O)NC1CCCC1 (stereo not given)
  Methyltransferases = i

The listing continues.
Compound,Methyltransferases
CCCn1c(=O)c2ccc(C(=O)NC(C)CC)cc2n2c(=O)n(CC(=O)c3cc(C)ccc3C)nc12 (stereo not given),i
Cc1c(Cl)cccc1N1C(=O)c2cc3sccc3n2CC1(C)C(=O)NC1CCCCCCC1 (stereo not given),i
CC(C)Oc1ccc(C(=O)NC(CNC(=O)CN(C)C)Cc2ccc(-c3cn4cccc(C(C)O)c4n3)cc2)cc1Cl (stereo not given),?
COc1ccccc1CNC(=O)C1c2c(n(C)c3ccccc23)SCC(=O)N1c1ccc(F)cc1F (stereo not given),i
CNC(=O)N1CCCC1c1nc(C2CN(C(=O)c3cnccn3)C2)no1 (stereo not given),i
CCCCCNC(=O)c1ccc2c(=O)nc3c(-c4cccc(F)c4)n[nH]n3c2c1,i
COc1ccc(NC(=O)CSc2nnc3n(C)c(=O)c4ccc(C(=O)NC5CCCC5)cc4n23)cc1,i
Cc1cc(Nc2nn(-c3ccccc3)c(=O)c3ccccc23)n[nH]1,?
Cc1noc2ncnc(N3CCC4(CC3)CC(c3ccccc3)CN(C)C4)c12 (stereo not given),?
OC[C@H]1O[C@@H](OC[C@H]2O[C@@H](OCc3ccccc3)[C@H](O)[C@@H](O)[C@@H]2O)[C@H](O)[C@@H](O)[C@@H]1O,i
CC(O)CO[C@@H]1O[C@H](CO)[C@@H](O)[C@H](O)[C@H]1O (stereo not given in full),i
CN(Cc1ccccc1)Cc1nnc(C(=O)N2CCC[C@@H]2c2cccc(F)c2)n1-c1ccccc1,i
COc1cc(O)cc(C)c1C(=O)O[C@H]1[C@@H](O)[C@@H](n2ccc(=O)[nH]c2=O)O[C@@H]1CO,i
CC(C)C1c2cccn2CCN1C(=O)Nc1ccccc1F (stereo not given),i
Cc1cccc(C(=O)N2CC(N(C)Cc3cccnc3)C2)c1,i
Cc1ccc(Cn2c(=O)c3ccc(C(=O)NCC(C)C)cc3n3c(=O)n(CC(=O)NC(C)(C)C)nc23)cc1,i
CCCS(=O)(=O)N1CCC(N2C(=O)[C@H](OCCOC)[C@@H]2c2ccncc2)CC1,i
CC(C)CCNC(=O)C1c2c(n(C)c3ccccc23)SCC(=O)N1C1CCCCC1 (stereo not given),i
O=C(Cn1c(=O)oc2cc(S(=O)(=O)N3CCCC3)ccc21)NCCc1ccccc1,i
COc1ccc(OC)c(CNS(=O)(=O)c2ccc3c(c2)n(C)c(=O)n3C)c1,i
CCOC(=O)C1CCCN(C(=O)C2CCc3nnc(C4CC4)n32)C1 (stereo not given),i
CCCn1c(=O)c2cc(Cl)ccc2n2c(=O)n(CC(=O)c3ccc(OCC)cc3)nc12,i
CC1(C(=O)NCc2ccccc2)Cn2c(cc3ccccc32)C(=O)N1CCc1ccco1 (stereo not given),i
CC(C)Cn1c(=O)c2ccc(C(=O)NC(C)C)cc2n2c(=O)n(CC(=O)NCc3ccccc3)nc12,i
CCCC1c2ccc(C)n2CCN1C(=O)Nc1cccc(Cl)c1C (stereo not given),i
O=C(C1CCCC1)N1CC2(CCN(Cc3ccc(Cl)cc3)C2)Cc2ccccc21 (stereo not given),i
O=C(c1ccc(CC2CC(=O)N(c3ccccc3)C2)nc1)N1CCCC1 (stereo not given),i
O=C(NC1CCN(c2cc(-c3ccc(F)cc3)[nH]n2)C1)c1cc2ccccc2[nH]1 (stereo not given),i
Cc1ccsc1CCNC(=O)Cn1c(=O)oc2cc(S(=O)(=O)N3CCCC3)ccc21,+
COc1ccccc1CC(=O)NCCn1cccc1-c1nc(-c2ccccc2)no1,i

In a second layout: entries from further up
CCCn1c(=O)c2ccc(C(=O)NC(C)CC)cc2n2c(=O)n(CC(=O)c3cc(C)ccc3C)nc12 (stereo not given)
- Methyltransferases: i
Cc1c(Cl)cccc1N1C(=O)c2cc3sccc3n2CC1(C)C(=O)NC1CCCCCCC1 (stereo not given)
- Methyltransferases: i

Following part:
Compound,Methyltransferases
O=C(CC1COCCN1)N1CCC2(CCC(=O)N(CCc3ccccc3)C2)CC1 (stereo not given),i
COc1ccc(F)cc1-c1cccc(C(=O)NCC(=O)N2CCN(C)CC2)c1,i
CCOc1ccc(CCNS(=O)(=O)c2ccc3[nH]c(=O)[nH]c3c2)cc1OCC,i
COc1cccc(S(=O)(=O)N2CCC3(CCCCO3)CC2)c1,i
Cc1noc(C2CC3(CCN(C(=O)Nc4ccccc4)CC3)CN2C)n1 (stereo not given),i
CN1CCN(C(=O)c2ccc(Nc3nccc(-c4cccs4)n3)cc2Cl)CC1,+
CCCC(=O)N(c1ccc(OC)cc1)S(=O)(=O)c1ccc2c(c1)n(C)c(=O)n2C,i
Cc1nc(-c2cn(C3CCCN(C(=O)C(C)Oc4ccccc4)C3)nn2)no1 (stereo not given),i
Cn1c(=O)c2ccc(C(=O)NC3CCCC3)cc2n2c(=O)n(Cc3cccc(F)c3)nc12,i
CCC(C)NC(=O)c1ccc2c(=O)n(C(C)C)c3nn(CC(=O)Nc4ccccc4F)c(=O)n3c2c1 (stereo not given),i
CSc1ccc(CCN2C(=O)c3ccc(-c4ccccc4)n3CC2(C)C(=O)NC2CCCC2)cc1 (stereo not given),i
C=C(C(=O)O)C1CCC(C)C2CCC(=O)OC2(C)C1 (stereo not given),?
Cc1nn(CCO)cc1CN1CCC2(CC1)C(C(=O)O)CC(=O)N2C (stereo not given),i
COC(C)(C)CCn1nc(Nc2c(C)cccc2C)c2cnc(Nc3ccc(OCCN4CCCC4)c(F)c3)nc21,+
C#CCNC(=O)[C@@H]1CCCN1[C@@H](C(=O)NC)c1ccccc1,i
Cc1ccc(CN2C(=O)c3ccc(-c4ccco4)n3CC2(C)C(=O)NC2CCCC2)cc1 (stereo not given),i
COc1cc(C(C)=O)ccc1O[C@@H]1O[C@H](CO[C@@H]2OC[C@@H](O)[C@H](O)[C@H]2O)[C@@H](O)[C@H](O)[C@H]1O,i
CCOC(=O)c1cc2n(n1)CC(C)(C(=O)NCc1ccccc1)N(c1ccc(F)cc1)C2=O (stereo not given),i
C=C(C(=O)O[C@H]1C/C(C)=C/CC/C(CO)=C/[C@H]2OC(=O)C(=C)[C@H]12)C(O)CO (stereo not given in full),i
CC(C)S(=O)(=O)NC[C@@H]1CC(c2ccc(N3CCCC3)c(F)c2)=NO1,i
COc1ccc(-c2nc(Cn3c(-c4ccc(Cl)cc4)nc(C)c(CCO)c3=O)c(C)o2)cc1,i
CC1(C(=O)NC2CCCCCC2)Cn2c(cc3occc32)C(=O)N1C1CCCCCC1 (stereo not given),i
COC(=O)c1ccc(OC(CO)C(O)c2ccc(O)c(OC)c2)c(OC)c1 (stereo not given),i
O=C(Cn1c(=O)oc2cc(S(=O)(=O)N3CCCC3)ccc21)Nc1cc(F)ccc1F,i
CC(C)CNC(=O)c1ccc2c(=O)n(CC(C)C)c3nn(CC(=O)c4cccc(Cl)c4)c(=O)n3c2c1,i
CCOCCn1c(=O)[nH]c2cc(C(=O)NCCn3cnnc3)ccc21,i
O=C1[C@@H]2[C@H]3CC[C@H](C3)[C@@H]2C(=O)N1CCCCN1CCN(c2ncccn2)CC1,i
O=C(CC1CCOC2(CCN(S(=O)(=O)c3ccc(F)cc3)CC2)C1)N1CCOCC1 (stereo not given),i
CCOC(=O)C1CCN(C(=O)CN(C)S(=O)(=O)c2ccc3[nH]c4c(c3c2)CCCC4)CC1,i
CN(CCc1ccccc1)[C@@H]1[C@H](O)[C@H](CO)O[C@@H]1CNS(=O)(=O)c1cccs1,i
COCCOC(=O)C1=C(C)NC(C)=C(C(=O)OC(C)C)C1c1cccc([N+](=O)[O-])c1 (stereo not given),i
CCOC(=O)c1cc2n(n1)CC(C)(C(=O)NC1CCCCCC1)N(Cc1cccc(OC)c1)C2=O (stereo not given),i
C/C=C/C1=CC2=C(CO1)C(=O)C(C)(O)C(OC(=O)c1c(C)cc(OC)cc1O)C2 (stereo not given),i
COc1ccc(NC(=O)N2Cc3[nH]cnc3C[C@H]2c2nc(-c3ccc(C(F)(F)F)cc3)no2)cc1,i
CC(C)CNC(=O)c1ccc2c(=O)n(C(C)C)c3nn(CC(=O)Nc4ccccc4Cl)c(=O)n3c2c1,i
Oc1c(C(c2ccccc2)N2CCC(O)CC2)sc2nc(-c3ccco3)nn12 (stereo not given),?
CS(=O)(=O)N1C[C@H]2CCN(C(=O)c3cc(F)ccc3F)C[C@H]21,i
O=c1onc2cnc3ccccc3n12,?
CCCn1c(=O)c2ccc(C(=O)NC3CCCC3)cc2n2c(SCC(=O)c3ccc(F)cc3)nnc12,i
Cc1ccccc1CNC(=O)c1cc2n(n1)CC(C)(C(=O)NC1CCCC1)N(C)C2=O (stereo not given),i
CC(=O)Nc1cccc(-c2csc(Nc3cc(C)ccn3)n2)c1,?
